Screening data (PubChem)
MARV entry inh: blocks Marburg virus binding to or entry into cells. Marburg virus pseudotyped entry inhibition, cell reporter; control for the full effect not named in the record; about a third of the inactives were read at about 46 µM. Potency, µM (series often up to 37.8 µM), inactives show at the top dose activity change, negative = inhibition, most hits filed as inhibitors. hit rate 1.8% among 300,000; active = well fitted inhibition curve with a large enough effect; inconclusive = small, poorly fitted or top-dose-only effect, or effect the other way; inactive = flat fitted curve, though single readings scatter; tested in HEK293 cells; about a fifth of its hits are not listed in these tables; note: % is set by controls: 0 for no effect and ±100 for the full control effect; luciferase read-out
2A StopGo: lowers the luciferase signal of an FMDV 2A StopGo reporter. Potency, µM (series often up to 57.9 µM), for the others: top-dose signal change, negative = less light. hit rate 1.2% among 410,000. AID 1159524. human cells with a luciferase reporter of 2A StopGo recoding; control for the full effect not named in the record; active = well fitted falling curve with a large enough effect; inconclusive = small, poorly fitted or top-dose-only effect; inactive = no such curve, though single readings can be large or run the other way; tested in HEK293T cells; note: % is set by controls: 0 for no effect and ±100 for the full control effect; nearly all actives have a fitted effect of over 45% in size; luciferase light after 4 h
Lassa entry inh: blocks Lassa virus binding to or entry into cells; Lassa virus pseudotype entry inhibition, cell reporter; control for the full effect not named in the record; Potency, µM (series often up to 37.9 µM), for inactives: top-dose activity change, negative = inhibition, hits mostly inhibitors; hit rate 1.2% among 300,000; AID 540256; active means well fitted inhibition curve with a large enough effect; inconclusive means small, poorly fitted or top-dose-only effect, or effect the other way; inactive means flat fitted curve, though single readings scatter; tested in HEK293 cells; note: % is set by controls: 0 for no effect and ±100 for the full control effect; nearly all actives have a fitted effect of over 50% in size; luciferase read-out
Cruzain inh noDet: inhibitors of Trypanosoma cruzi cruzain without detergent; hit rate 2.3% among 200,000; P25779; purified cruzain, Z-FR-AMC fluorescence, no detergent; Potency, µM, inactives show max response, negative = inhibition, most hits filed as inhibitors; active = well fitted curve in the direction sought with a large enough effect; inconclusive = small, poorly fitted or top-dose-only effect, or another doubt; inactive = no such curve, though single readings can be large; an effect the other way counts as inactive or inconclusive;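 note: plate controls were enzyme without inhibitor for no effect and buffer without enzyme for full effect; nearly all actives have a fitted effect of over 40% in size; top concentration of the series not given in the record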
Target sequence (P25779 123-467 limits assumed): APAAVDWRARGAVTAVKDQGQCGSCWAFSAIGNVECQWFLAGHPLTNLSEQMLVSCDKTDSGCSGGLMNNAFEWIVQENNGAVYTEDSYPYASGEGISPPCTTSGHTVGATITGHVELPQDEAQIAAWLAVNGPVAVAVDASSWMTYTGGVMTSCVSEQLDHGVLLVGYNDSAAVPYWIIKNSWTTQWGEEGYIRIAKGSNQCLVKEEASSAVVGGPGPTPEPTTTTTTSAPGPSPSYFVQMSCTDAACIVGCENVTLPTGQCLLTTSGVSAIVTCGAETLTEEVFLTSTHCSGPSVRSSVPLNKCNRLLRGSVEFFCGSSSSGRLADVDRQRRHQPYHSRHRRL
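Purified cruzain at 1.5 nM, pre-incubated 15 min with compound at room temperature in 100 mM sodium acetate pH 5.5, 5 mM DTT, 0.00005% Triton X-100. Reaction started with 2 uM Z-FR-AMC; AMC fluorescence increase over 60 s gives rate.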
SARS PLP yeast: SARS-CoV PLP inhibition in yeast; S. cerevisiae expressing SARS-CoV PLpro, growth rescue; control for the full effect not named in the record; Potency, µM (titrated, usually from 32.9 µM), for the others: at the top dose activity, positive = growth rescue; hit rate 0.19% among 330,000; note: 0% is about no effect; nearly all actives have a fitted effect of over 55% in size; growth read by luminescence after 48 h
RE007 growth inh: less growth of the S. pombe RE007 Vpr strain; hit rate 0.21% among 360,000; S. pombe RE007 Vpr strain, BacTiter-Glo ATP luminescence, 24 h; control for the full effect not named in the record; Potency, µM (doses to about 92.2 µM), for the others: at the top dose activity change, negative = less growth; active = well fitted falling curve with a large enough effect; inconclusive = small, poorly fitted or top-dose-only effect; inactive = no such curve, though single readings can be large or run the other way;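 note: % is set by controls: 0 for no effect and ±100 for the full control effect; nearly all actives have a fitted effect of over 50% in size; the assay follows cell death caused by Vpr and the record does not say whether a fall means rescue or toxicity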
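Fission yeast strain RE007, carrying one chromosomally integrated HIV-1 vpr copy, was seeded at OD 0.01 in PMG+AL medium with 23 nL pinned compound. After 24 h at 30 °C and 99% humidity, viability was read by BacTiter-Glo luminescence.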
Cruzain Triton: blocks cruzain activity in presence of Triton detergent; P25779; purified cruzain, Z-FR-AMC fluorescence, 0.01% Triton; Potency, µM, inactives show max response, negative = inhibition, hits mostly inhibitors; hit rate 0.43% among 200,000; active = well fitted curve in the direction sought with a large enough effect; inconclusive = small, poorly fitted or top-dose-only effect, or another doubt; inactive = no such curve, though single readings can be large; an effect the other way counts as inactive or inconclusive;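 note: plate controls were neutral wells for no effect and buffer without enzyme for full effect; nearly all actives have a fitted effect of over 40% in size; top concentration of the series not given in the record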
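Steps: dispense cruzain (1.5 nM final) in acetate buffer pH 5.5 with DTT and 0.01% Triton X-100; pin-transfer compounds; incubate 15 min RT; add Z-FR-AMC (2 uM final); read fluorescence every 30 s, using the 60 s intensity change.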
NS1 inh: blocks influenza NS1 protein function. S. cerevisiae slowed by influenza A NS1, growth recovery by OD600. Potency, µM (series often up to 46.1 µM), for the others: at the top dose activity, positive = more growth. hit rate 0.4% among 270,000. AID 2326; note: actives are rising curves; nearly all actives have a fitted effect of over 50% in size
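Read-out: OD600 growth recovery of NS1-expressing budding yeast. Cells grown overnight at 30C in -URA glucose medium, washed, resuspended and diluted 1:100 in 2% galactose assay medium, pH 6.0. Same strain lacking NS1 served as positive control.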
* hit, by the source's call; ? = inconclusive; · = no result given; & = joins results of further samples; [ ] = another dose, or the depositor's remark. Unless noted, calls come from the whole dose curve; as a rule, active means well fitted rising curve with a large enough effect; inconclusive means small, poorly fitted or top-dose-only effect; inactive means no such curve, though single readings can be large or run the other way. Potency is the fitted concentration of half-maximal effect. An unsorted share of the library. About 4.7% of those tested had a hit in this group.

SMILES	MARV entry inh	2A StopGo	Lassa entry inh	Cruzain inh noDet	SARS PLP yeast	RE007 growth inh	Cruzain Triton	NS1 inh
Clc1ccc(OCCn2cnc(Cl)c2Cl)cc1	·	-18%	·	·	-2%	32%	·	-32%
COC(C[C@H]1O[C@H]1[C@@H](O)[C@H](C)OCc1ccccc1)OC	·	-7%	·	·	1%	-12%	·	2%
COc1ccccc1NC(=O)Cn1cc(C(=O)c2ccco2)c2ccccc21	?	-10%	?	·	-2%	7%	·	-4%
CN(Cc1ccccc1)S(=O)(=O)c1nnc(NC(=O)c2ccccc2)s1	-12%&-12%[46.1 µM]	24%&46%	-2%&-7%[46.1 µM]	-1%	-5%	-12%	-3.3%	7%
COc1ccc(CCNC(=O)CSc2nnc(-c3cccc(F)c3)o2)cc1OC	15%	-22%	0%	6%	-14%	3%	4.1%	-6%
COc1ccc(Nc2nc(C)cc(C)c2C(N)=O)cc1OC	-7%[46.1 µM]	3%	18%[46.1 µM]	·	?	-18%	·	9%
Cc1nnc(SCC(=O)NCCN2C(=O)CSC2=O)s1	2%	16%	2%	4%	12%	3%	0.7%	2%
c1ccc(Cn2nnc3c(N4CCc5ccccc5C4)ncnc32)cc1	-4%&2%	-9%	2%	-6%	-14%	-21%	-3.3%	-40%
COc1ccc(CNC(=O)C2CCNCC2)cc1	0%	16%	2%	-1%	3%	-5%	-0.4%	6%
CC(=O)Nc1nc2c(c3c1c(=O)oc1ccccc13)CCCCC2	0%	·	·	-2%	?	·	0.9%	-3%
O=C(NC1CCCCC1)N1CCCC(c2nc3ccccc3[nH]2)C1 (stereo not given)	5%	-16%	20%[14.3 µM]	5µM*	2%	13%	?	-12%
COc1cccc(CN2CCN(Cc3ccc(O)cc3)CC2CCO)c1 (stereo not given)	·	-8%	·	·	-1%	-17%	·	0%
COc1cc2[nH]ccc(=O)c2cc1OC	4%	0%	-3%	-12%	-12%	0%	-0.2%	-5%
CCOC(=O)N1CCC(NC(=O)c2cnn(-c3cccc(C)c3)c2C2CCN(C(=O)OC(C)(C)C)CC2)CC1	·	0%	8%[46.1 µM]	-2%	·	·	-1.2%	·
Cc1ccc(Cn2ncc3c(N4CCCC4)ncnc32)cc1	-2%	-25%	0%	4%	-1%	-8%	3.7%	-6%
COc1ccc(NC(=O)COC(=O)c2cc(=O)c3ccccc3o2)cc1OC	21%	-4%	11%	·	0%	5%	·	·
O=C(NCCc1ccccc1)c1ccc(-c2ccccc2Cl)o1	?	56%[activator]	-1%	-2%	-9%	-5%	-11%	-50%
COc1ccccc1C(=O)n1nc(-c2ccco2)nc1N	-1%	-17%	16%	-6%	1%	-1%	0.5%	-8%
O=C1c2cccnc2C(=O)N1Cc1ccc(Cl)cc1	?	9%	-7%	-2%	-1%	15%	7.3%	-21%
C/C(N)=C(/C#N)C(=O)CSc1n[nH]c(-c2cccs2)n1	8%	49%[activator]	15%	·	1%	-2%	·	2%
O=C1CCc2cc(S(=O)(=O)Nc3ccc(C(F)(F)F)cc3)cc3c2N1CC3	-14%	20%	0%	·	4%	6%	·	·
CC(C)CC(NC(=O)C1CCC(C)CC1)C(=O)Nc1cccnc1 (stereo not given)	12%	-1%	17%	-13%	1%	18%	-11%	0%
O=C(Nc1cccc(Cl)c1)c1cc(-c2ccco2)on1	18%[46.1 µM]	21%	-5%	·	-17%	-12%	·	-27%
Cc1cccn2c(=O)c(C(=O)NCCCN3CC(C)CC(C)C3)c(O)nc12 (stereo not given)	-6%[46.1 µM]	-10%	-1%	·	-2%	3%	·	·
O=C(NC(=S)Nc1cccc([N+](=O)[O-])c1)C1CCCCC1	10%[46.1 µM]	7%	3%[46.1 µM]	·	-4%	2%	·	10%
Cn1c(=O)c2c(nc(CN3CCc4ccccc4C3)n2CC(=O)c2ccccc2)n(C)c1=O	?	·	-27%	·	·	1%	·	-24%
COc1ccc(C(=O)N2CCCC(Nc3ccc(C)c(C)c3)C2)cc1 (stereo not given)	·	-28%	·	·	-3%	-8%	·	10%
CC(=O)Nc1ccc(S(=O)(=O)N(C)Cc2cnn(C)c2)cc1	9%	-19%	-6%	·	5%	-16%	·	-20%
CC(=O)c1cccc(NC(=O)N2CCCC2C(=O)NCc2ccc(C)cc2)c1 (stereo not given)	-13%	7%	-22%	-10%	-8%	-4%	-2.4%	5%
Cc1nnc2ccc(N3CCN(C)CC3)nn12	10%	-12%	19%	2%	-4%	-6%	1.3%	7%
COc1cccc(CN2CC(C(=O)NC3CCC(O)CC3)CCC2=O)c1 (stereo not given)	17%	-23%	-4%	·	-2%	-7%	·	-2%
COc1ccc(-c2nn(CCC#N)cc2C(=O)Nc2ccccc2Cl)cc1	11%[46.1 µM]	4%	0%[46.1 µM]	·	3%	-7%	·	?
O=C(COc1ccccc1F)Nc1nnc(SCc2cc(=O)n3ccccc3n2)s1	·	-10%	-1%[46.1 µM]	-2%	·	·	1.4%	·
Fc1ccc(-c2cc(-c3nc(-c4ccc(Cl)cc4)no3)[nH]n2)cc1	·	-2%	19%[46.1 µM]	-15%	·	·	2.7%	·
CN1CCC(N(C)CC(O)c2ccccc2)CC1 (stereo not given)	-2%	2%	?	·	6%	1%	·	·
Cc1ccc(-c2nnc(SCC(=O)Nc3ccc4c(c3)OCCO4)n2N)cc1	-4%	-14%	-5%	-7%	-2%	0%	-2.3%	6%
O=C(Nc1cccc(F)c1F)C1CCN(c2ncccn2)CC1	-13%[46.1 µM]	-18%	22%[46.1 µM]	-1%	·	·	-2.2%	·
COc1ccccc1N1CCN(C(=O)c2ccco2)CC1	?	11%	2%[46.1 µM]	·	-1%	11%	·	-2%
Cc1cccc(C(=O)NC2CCN(S(=O)(=O)c3ccc(F)cc3)CC2)c1	·	-24%	·	·	3%	5%	·	?
O=C(CSc1ccc2nnc(-c3ccccc3)n2n1)N1CCCc2ccccc21	10%	-22%	12%	0%	-9%	49%	4.7%	-6%
COc1ccc(C2N(c3ccc4c(c3)OCCO4)C(=O)C2(F)F)cc1OC (stereo not given)	15%[46.1 µM]	-26%	-12%	·	0%	8%	·	4%
CN1CCN(C(=O)c2cnn3c2NC(c2ccccc2)CC3C(F)(F)F)CC1 (stereo not given)	-17%[46.1 µM]	-2%	9%[46.1 µM]	·	3%	0%	·	1%
Cc1occc1C(=O)NCc1ccccc1	12%	-4%	13%	-2%	1%	-8%	-0.1%	-2%
CCSc1nc2ccccc2n1CC(N)=O	16%&16%	-17%	-1%	-4%	19%	-19%	1.1%	6%
Cc1ccc(NC(=O)CSc2nnc(-c3cc(C)[nH]n3)n2N)c(C)c1	3%[46.1 µM]	5%	?	·	-2%	-6%	·	8%
COc1ccc(-c2csc(NC(=O)CN3C(=O)C4CCCCC4C3=O)n2)c(OC)c1 (stereo not given)	2%	?	-26%	·	0%	0%	·	·
CCn1ccnc1CN1CCC(n2nccc2NC(=O)CCc2ccccc2)CC1	16%	-8%	4%	·	-2%	2%	·	-3%
O=C(CN1C(=O)COc2ccccc21)N1CCN(C2CCCCC2)CC1	0%[46.1 µM]	10%	-1%	·	0%	-8%	·	13%
O=[N+]([O-])c1ccc(-c2cn(-c3ccccc3F)c(=S)[nH]2)cc1	14%[46.1 µM]	25%	0%[46.1 µM]	·	0%	-2%	·	·
CC(=O)NC1=NC(=O)/C(=C/N2CCOCC2)S1	10%	8%	-9%	-4%	4%	10%	-4.9%	-3%
Cc1ccc(S(=O)(=O)N/N=C\c2cc3c(cc2[N+](=O)[O-])OCO3)cc1	?	3%	-31%	-24%	2%	1%	-1.5%	23%
C/C=C(/C)C(=O)Nc1cccc(C2=NOC3(C2)C[C@H](C(N)=O)N(C(=O)Cc2ccc([N+](=O)[O-])cc2)C3)c1 (stereo not given in full)	2%	-15%	·	·	1%	-7%	·	-1%
C/C(CC(=O)N1CCN(C=O)CC1)=N\NC(=O)c1ccc(Cl)cc1	5%[46.1 µM]	-7%	-3%	·	-1%	?	·	-6%
COc1cccc(NC(=O)CSc2nc3ccccc3c(=O)n2CCCC(=O)NCC2CCCO2)c1 (stereo not given)	·	-10%	·	·	0%	7%	·	-31%
O=C(O)CSCC(=O)N(c1ccccc1)c1ccccc1	-1%	-1%	2%	·	-3%	6%	·	-7%
Cc1ccc(OCC(=O)Nc2ccc3c(c2)CCC3)c([N+](=O)[O-])n1	-8%	56%[activator]	?	·	0%	1%	·	·
Cn1ncc(Br)c1C(=O)N1CCN(C(=O)c2ccco2)CC1	-27%	-22%	18%	-5%	-1%	·	-8.0%	11%
COc1ccc(CCNC(=O)c2ccc(-c3cccc([N+](=O)[O-])c3)o2)cc1OC	-16%[46.1 µM]	?	2%	·	1%	16%	·	-2%

Profiles from above. Order of screens: MARV entry inh | 2A StopGo | Lassa entry inh | Cruzain inh noDet | SARS PLP yeast | RE007 growth inh | Cruzain Triton | NS1 inh
`CN(Cc1ccccc1)S(=O)(=O)c1nnc(NC(=O)c2ccccc2)s1` is listed with -12%&-12%[46.1 µM] | 24%&46% | -2%&-7%[46.1 µM] | -1% | -5% | -12% | -3.3% | 7%
`Cn1c(=O)c2c(nc(CN3CCc4ccccc4C3)n2CC(=O)c2ccccc2)n(C)c1=O` is listed with ? | · | -27% | · | · | 1% | · | -24%
`Cc1ccc(OCC(=O)Nc2ccc3c(c2)CCC3)c([N+](=O)[O-])n1` is listed with -8% | 56%[activator] | ? | · | 0% | 1% | · | ·
